Screening results from PubChem BioAssay.
Cruzain inh Det: blocks cruzain activity in presence of Triton detergent | P25779 | Potency, µM, inactives show max response, negative = inhibition, usual class: inhibitors | actives 0.43% (n = 200,000) | purified cruzain, Z-FR-AMC fluorescence, 0.01% Triton;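 further: plate controls were neutral wells for no effect and buffer without enzyme for full effect; nearly all actives have a fitted effect of over 40% in size; top concentration of the series not given in the record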
Target sequence (P25779 123-467 limits assumed): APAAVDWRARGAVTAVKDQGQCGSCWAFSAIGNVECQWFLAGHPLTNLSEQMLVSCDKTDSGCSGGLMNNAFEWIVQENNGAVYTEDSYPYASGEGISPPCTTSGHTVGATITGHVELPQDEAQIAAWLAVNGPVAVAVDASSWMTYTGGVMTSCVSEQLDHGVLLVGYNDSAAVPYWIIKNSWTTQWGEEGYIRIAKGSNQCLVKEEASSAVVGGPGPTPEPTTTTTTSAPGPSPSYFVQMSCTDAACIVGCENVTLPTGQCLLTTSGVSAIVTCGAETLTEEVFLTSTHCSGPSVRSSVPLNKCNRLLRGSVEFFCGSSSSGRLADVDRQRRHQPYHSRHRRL
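Detergent-containing run (0.01% Triton X-100) in acetate buffer pH 5.5 with 5 mM DTT: enzyme at 1.5 nM final, 15 min compound preincubation at room temperature, then 2 uM Z-FR-AMC substrate. Activity taken as 60 s fluorescence increase at 360/450 nm.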
Lassa entry inh: blocks Lassa virus binding to or entry into cells; Lassa virus pseudotype entry inhibition, cell reporter; control for the full effect not named in the record; Potency, µM (top dose mostly 37.9 µM), inactives show top-dose activity change, negative = inhibition, usual class: inhibitors; actives 1.2% (n = 300,000); AID 540256; active means well fitted inhibition curve with a large enough effect; inconclusive means small, poorly fitted or top-dose-only effect, or effect the other way; inactive means flat fitted curve, though single readings scatter; tested in HEK293 cells; further: on the % scale 0 is the no-effect control and ±100 the full control effect; nearly all actives have a fitted effect of over 50% in size; luciferase read-out
SARS PLP yeast: SARS-CoV PLP inhibition in yeast; S. cerevisiae expressing SARS-CoV PLpro, growth rescue; control for the full effect not named in the record; Potency, µM (top dose mostly 32.9 µM), for inactives: top-dose activity, positive = growth rescue; actives 0.19% (n = 330,000); AID 485353; active means well fitted rising curve with a large enough effect; inconclusive means small, poorly fitted or top-dose-only effect; inactive means no such curve, though single readings can be large or run the other way; further: 0% is about no effect; nearly all actives have a fitted effect of over 55% in size; growth read by luminescence after 48 h
Cruzain inh noDet: cruzain (T. cruzi) inhibition without detergent; P25779; purified cruzain, Z-FR-AMC fluorescence, no detergent; Potency, µM, for inactives: max response, negative = inhibition, most hits filed as inhibitors; actives 2.3% (n = 200,000);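 further: plate controls were enzyme without inhibitor for no effect and buffer without enzyme for full effect; nearly all actives have a fitted effect of over 40% in size; top concentration of the series not given in the record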
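Detergent-free condition (0.00005% Triton X-100) in acetate buffer pH 5.5 with DTT. 1.5 nM enzyme and compound were pre-mixed 15 min, then 2 uM Z-FR-AMC substrate added; reaction progress from fluorescence change between first and third reads (60 s).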
MARV entry inh: inhibitors of Marburg virus binding or cell entry | Marburg virus pseudotyped entry inhibition, cell reporter; control for the full effect not named in the record; about a third of the inactives were read at about 46 µM | Potency, µM (titrated, usually from 37.8 µM), inactives show at the top dose activity change, negative = inhibition, most hits filed as inhibitors | actives 1.8% (n = 300,000); active = well fitted inhibition curve with a large enough effect; inconclusive = small, poorly fitted or top-dose-only effect, or effect the other way; inactive = flat fitted curve, though single readings scatter; tested in HEK293 cells; about a fifth of its hits are not listed in these tables; further: on the % scale 0 is the no-effect control and ±100 the full control effect; luciferase read-out
2A StopGo: lowers the luciferase signal of an FMDV 2A StopGo reporter; Potency, µM (top dose mostly 57.9 µM), without a hit: top-dose signal change, negative = less light; human cells with a luciferase reporter of 2A StopGo recoding; control for the full effect not named in the record; actives 1.2% (n = 410,000); AID 1159524; active = well fitted falling curve with a large enough effect; inconclusive = small, poorly fitted or top-dose-only effect; inactive = no such curve, though single readings can be large or run the other way; tested in HEK293T cells; further: on the % scale 0 is the no-effect control and ±100 the full control effect; nearly all actives have a fitted effect of over 45% in size; luciferase light after 4 h
RE007 growth inh: less growth of the S. pombe RE007 Vpr strain. S. pombe RE007 Vpr strain, BacTiter-Glo ATP luminescence, 24 h; control for the full effect not named in the record. AID 651644. Potency, µM (titrated, usually from 92.2 µM), without a hit: at the highest dose activity change, negative = less growth. actives 0.21% (n = 360,000); active = well fitted falling curve with a large enough effect; inconclusive = small, poorly fitted or top-dose-only effect; inactive = no such curve, though single readings can be large or run the other way;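 further: on the % scale 0 is the no-effect control and ±100 the full control effect; nearly all actives have a fitted effect of over 50% in size; the assay follows cell death caused by Vpr and the record does not say whether a fall means rescue or toxicity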
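Fission yeast RE007 carrying one integrated HIV-1 vpr copy, seeded at OD 0.01 in PMG+AL medium with 23 nL pinned compound. Grown 24 h at 30 degrees; viability read by BacTiter-Glo luminescence after 5 min.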
NS1 inh: blocks influenza NS1 protein function | actives 0.4% (n = 270,000) | AID 2326 | Potency, µM (highest dose often 46.1 µM), without a hit: at the top dose activity, positive = more growth | S. cerevisiae slowed by influenza A NS1, growth recovery by OD600; active means well fitted rising curve with a large enough effect; inconclusive means small, poorly fitted or top-dose-only effect; inactive means no such curve, though single readings can be large or run the other way; further: nearly all actives have a fitted effect of over 50% in size
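S. cerevisiae expressing influenza A NS1, grown in glucose, washed, then diluted 1:100 into pH 6.0 -URA galactose medium with 23 nl compound. Growth recovery read as OD600; NS1-free strain serves as control.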
* hit, by the source's call; ? = inconclusive; · = not tested or not shown; [ ] = another dose, or the depositor's remark. Unless noted, the call rests on the fitted dose curve; in most records, active means well fitted curve in the direction sought with a large enough effect; inconclusive means small, poorly fitted or top-dose-only effect, or another doubt; inactive means no such curve, though single readings can be large; an effect the other way counts as inactive or inconclusive. Potency means the concentration at half of the fitted maximal effect.

| Compound | Cruzain inh Det | Lassa entry inh | SARS PLP yeast | Cruzain inh noDet | MARV entry inh | 2A StopGo | RE007 growth inh | NS1 inh |
| --- | --- | --- | --- | --- | --- | --- | --- | --- |
| O=C(OCC(=O)c1c[nH]c2ccccc12)C1=COCCO1 | -1.2% | -0.1% | 0.4% | -7.2% | 15.2% | 56.0%[activator] | -23.8% | -5.9% |
| COc1ccc(C2C(C(=O)N3CCCC3)CC(=O)N2c2ccc(OC)cc2)cc1 (stereo not drawn) | 7.2% | 7.1% | 4.6% | -0.2% | -9.5% | -2.8% | 28.8% | -0.4% |
| COc1ccc(/C=N/n2c(=O)[nH]c3c([nH]c4ccc(Br)cc43)c2=O)cc1CN1CCOCC1 | -24.4% | 19.6% | 2.4% | -2.7% | -26.2% | -18.5% | 10.6% | -11.0% |
| CS(=O)(=O)c1nc(-c2ccc(F)cc2)cc(C(F)(F)F)n1 | · | ? | -5.7% | · | ? | 28.2µM* | -14.8% | -81.9% |
| NC(=O)c1ccccc1NC(=O)CCn1c(=S)oc2ccccc21 | · | -17.2%[46.1 µM] | 0.8% | · | -1.8%[46.1 µM] | -14.8% | 5.1% | -1.1% |
| C=CCn1c(=NC(=O)C2CC2)sc2cc(NC(C)=O)ccc21 | -12.5% | · | 3.2% | 9.2% | · | 20.2% | -4.5% | -4.2% |
| O=C(NCc1ccccc1Cl)C(=O)NCC1OCCN1S(=O)(=O)c1cccs1 (stereo not drawn) | · | 12.2% | -0.5% | · | -27.5%[46.1 µM] | 7.6% | 9.3% | · |
| Cc1ccc(N2CC(C(=O)NCc3ccco3)CC2=O)cc1Cl (stereo not drawn) | · | · | 0.1% | · | · | -2.7% | 10.9% | 0.7% |
| COc1ccc(Br)cc1CN(C)CC(=O)Nc1cc(Cl)ccc1Cl | -5.9% | 7.3% | -4.2% | 6.9% | -27.7% | ? | · | -0.1% |
| O=c1ccn(Cc2ccccc2)c(=O)n1Cc1ccccc1 | -3.6% | -12.0% | -9.9% | 3.0% | 10.5% | -10.6% | 3.1% | -5.9% |
| O=S1(=O)N=C(N(CCO)/N=C/c2ccccc2)c2ccccc21 | · | 6.3% | -0.6% | · | -7.2%[46.1 µM] | ? | -7.5% | · |
| COc1ccc(CNC(=O)c2cccc(C)c2[N+](=O)[O-])cc1 | -0.5% | 14.5% | ? | -0.3% | ? | 14.4% | · | -15.8% |
| CC1CCCCN1CCCNC(=O)c1cc(Sc2cccc(Cl)c2)nc2ccccc12 (stereo not drawn) | 1.6% | -8.7%[46.1 µM] | · | -12.1% | · | 14.1% | · | · |
| O=C(COC(=O)Cc1ccccc1F)NCc1ccc(Cl)cc1 | · | 18.8%[46.1 µM] | -0.5% | · | ? | 12.2% | 10.4% | · |
| O=c1c2ccccc2nc(/C=C/c2ccc(O)cc2)n1-c1ccccc1O | · | · | -0.7% | · | · | -9.5% | 11.6% | 6.0% |
| O=C(Cn1c(=O)c(=O)n(Cc2ccccc2)c2ccc(Cl)cc21)Nc1ccc(F)cc1F | · | -20.1%[46.1 µM] | 0.4% | · | ? | -13.9% | 5.2% | 1.5% |
| Cc1ccccc1Nc1sc(C(=O)c2ccccc2)c(N)c1S(C)(=O)=O | -10.8% | 12.9%[46.1 µM] | · | -8.1% | 5.4%[46.1 µM] | ? | · | · |
| Cc1cccnc1CCNC(=O)CCc1nnc(-c2ccccc2)o1 | · | 8.0% | -0.2% | · | 22.0%[46.1 µM] | 7.3% | 1.4% | 6.1% |
| O=S(=O)(c1ccccc1OC(F)(F)F)N1CCN(c2ccnc3cc(Cl)ccc23)CC1 | · | · | -13.6% | · | · | ? | -1.5% | -21.8% |
| O=C(COc1ccc2ccccc2c1)NCCc1ccc2c(c1)OCCO2 | -8.0% | ? | -13.6% | 2.3% | 5.5% | ? | -29.2% | -10.6% |
| Cc1ccc(C)c(OC(=O)c2cccnc2Cl)c1C | · | 12.3%[46.1 µM] | -0.2% | · | 9.0%[46.1 µM] | -11.0% | -8.0% | -39.7% |
| CC(/C=C1\SC(=S)N(NC(=O)c2ccccc2C)C1=O)=C\c1ccccc1 | -5.7% | 10.3% | -13.6% | ? | -7.2% | -22.9% | 30.4% | 11.9% |
| Cc1ccccc1OCC(=O)OCC(=O)NCC1CCCO1 (stereo not drawn) | · | 9.3%[46.1 µM] | 0.8% | · | 16.8%[46.1 µM] | -9.6% | 0.5% | -4.0% |
| CCNc1nc(NCC)nc(N2CC(=O)N(CC(=O)OCC)C2=N)n1 | · | -0.7% | · | · | 0.0% | -14.1% | -10.0% | · |
| COc1cccc(CN2CCN(C3CCOCC3)CC2CCO)c1 (stereo not drawn) | · | 11.9% | -0.4% | · | -5.9%[46.1 µM] | -16.1% | 0.1% | 1.1% |
| O=C(COC(=O)c1ccco1)Nc1ccccc1[N+](=O)[O-] | · | 5.7% | -0.9% | · | 2.4%[46.1 µM] | 10.3% | ? | · |
| COc1cc(C(=O)ON=C2C(C)=CC(=O)C=C2C)cc(OC)c1OC | 2.2% | -14.0% | -3.3% | 4.4% | ? | -2.7% | 1.7% | 2.0% |
| Cc1ccc2oc(C(=O)N(Cc3sccc3C)C3CCS(=O)(=O)C3)c(C)c2c1 (stereo not drawn) | -9.8% | ? | · | 8.2% | 3.16µM* | ? | · | · |
| CCC(=O)N1CCc2cc(Br)cc(S(=O)(=O)N3CCN(C(=O)c4ccco4)CC3)c21 | 0.9% | 38.0% | -0.1% | ? | ? | 2.2% | -18.2% | -16.8% |
| O=C(NCC(=O)N1CCN(c2ccccc2)CC1)c1ccc(Br)o1 | · | -0.9% | -5.2% | · | 12.2% | -10.2% | 0.7% | 1.8% |
| Cc1ccc2c(c1)N(C(=O)N1CCC(C(=O)NCc3ccccc3C)CC1)CC(C)O2 (stereo not drawn) | -2.0% | -6.7%[46.1 µM] | · | -0.3% | · | ? | · | · |
| CNC(=O)CN1C(=O)NC(c2ccccc2)(c2ccccc2)C1=O | · | -12.5% | 8.1% | · | 4.2%[46.1 µM] | -21.4% | -20.4% | -7.1% |
| Cc1ccc(C)c(NC(=O)CN(C)C(=O)c2ccccc2OCc2ccc(Cl)cc2)c1 | · | ? | -25.0% | · | ? | -28.4% | 10.1% | · |
| CC(NCCC(Cc1ccccc1)c1ccco1)c1ccccc1 (stereo not drawn) | · | · | 2.4% | · | · | 6.5% | -3.4% | -3.3% |
| CC/C(=N\Nc1cccc2ccccc12)c1c(O)[nH]c(=O)[nH]c1=O | -4.7% | 7.0% | -1.3% | -13.3% | 7.9% | ? | ? | 24.6% |
| Cc1nn(-c2ccccc2)c(C)c1/C=N/NC(=O)c1cccs1 | -7.8% | 3.16µM* | 8.5% | -11.6% | 11.2µM* | 20.6% | -12.3% | -7.1% |
| O=C(Nc1nnc(-c2ccccc2F)s1)C1CCCO1 (stereo not drawn) | -10.9% | -26.3% | -21.5% | 14.8% | ? | 51.0%[activator] | 4.5% | -2.3% |
| O=C1CC(Nc2ccc(N3CCOCC3)cc2)C(=O)N1CCc1ccccc1 (stereo not drawn) | -0.1% | 11.8% | 11.4% | -7.5% | 14.6% | -6.3% | ? | 12.8% |
| COc1ccc(C(C(=O)NC2CCCC2)N(C(=O)c2ccco2)c2cccc(C(C)=O)c2)cc1OC (stereo not drawn) | · | -9.0% | 0.9% | · | -1.0%[46.1 µM] | -13.7% | 7.5% | 5.2% |
| Cc1cc(C)n(CC(=O)N2c3ccccc3Sc3ccc(C(F)(F)F)cc32)n1 | -5.9% | ? | 6.3% | 1.6% | ? | -3.9% | -17.5% | -7.9% |
| CC1CCN(S(=O)(=O)c2ccc3c(c2)N(CC(=O)Nc2ccc(F)c(Cl)c2)C(=O)CO3)CC1 | -5.5% | -3.1%[46.1 µM] | · | 7.7% | · | -17.5% | · | · |
| Cc1cccc(Nc2nc(N)nc(CSc3nccc(C)n3)n2)c1 | 1.3% | 0.4% | 2.5% | 12.0% | ? | -9.2% | 0.6% | -7.7% |
| Cc1ccc(CN2CCN(/N=C/c3ccc(Cl)c([N+](=O)[O-])c3)CC2)cc1 | · | 0.1%[46.1 µM] | -2.3% | · | ? | -19.8% | -17.2% | · |
| Cc1cccc(C)c1NC(=O)/C(=C/c1ccco1)c1ccccc1 | -4.8% | -29.7% | -4.1% | -8.1% | ? | -12.9% | 2.1% | -0.5% |
| NC(=O)CC(NC(=O)Cc1ccc(Br)cc1)c1ccc(NCc2cc(F)ccc2F)c([N+](=O)[O-])c1 (stereo not drawn) | · | · | -1.6% | · | · | -25.5% | 2.6% | -4.6% |
| COc1cc(NC(=S)NC(=O)c2c(OC)cccc2OC)ccc1NC(=O)c1cccs1 | -6.7% | -24.8% | 6.0% | -14.5% | -29.2% | -6.8% | -11.6% | 6.7% |
| Cc1cc(NC(=O)CCC(=O)N(Cc2cccnc2)C(C(=O)NC(C)(C)C)c2ccccc2Cl)no1 (stereo not drawn) | · | ? | -0.7% | · | -45.0%[46.1 µM] | -5.8% | 12.2% | 6.6% |
| CCN(CC(=O)Nc1ccccc1OC)C(=O)COc1ccc(C#N)cc1 | · | ? | · | · | -5.1% | -7.1% | -10.6% | · |
| O=C(CSc1nc(-c2ccccc2)cs1)N1CCc2ccccc21 | 0.0% | -22.6% | 4.3% | 15.5% | 1.9% | -14.3% | -9.1%[3.69 µM] | 4.9% |
| COc1ccc(-c2ccc(/C=C3\C(=O)N(c4ccccc4)N=C3c3ccccc3)o2)c([N+](=O)[O-])c1 | 1.4% | -26.1% | -5.7% | -17.7% | -7.2%[46.1 µM] | -20.7% | -17.7% | 8.9% |
| O=C(c1ccc(COc2ccccc2Br)o1)N1CCCCCC1 | -10.9% | 10.4% | -8.4% | 12.1% | -3.7% | -1.6% | 0.7% | -2.1% |
| COC(=O)c1oc(-c2ccc(Cl)cc2)nc1C | · | 5.1% | -2.3% | · | 7.6%[46.1 µM] | 41.0%[activator] | 2.4% | -6.3% |
| CCN(CC)CCN1C(=O)C(=O)/C(=C(/O)c2ccc(OC)cc2)C1c1cccs1 (stereo not drawn) | -1.8% | · | 4.0% | -14.6% | · | · | · | ? |
